Bioassay records deposited in PubChem by Broad Institute.
Shh pathway inh – Hedgehog pathway signaling inhibitors, primary screen, luminescence, Shh-LIGHT2 cells, Gli-luciferase; AID 2313, 2010; Shh-LIGHT2 Gli-luciferase reporter, 30 h; inhibition, % (test concentration not listed); actives 2.1% (n = 22,000);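 active = replicate mean of 65% or more; inconclusive = mean lower but half the replicates past it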;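 also: pathway switched on by Shh-conditioned medium diluted 1 in 25 in low serum; 100 nL library stock added to about 40 µL; 0% = median of neutral wells and 100% = positive control level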
MITF inhib – inhibitors of MITF, primary screen, MITF inhibitor project, cell-based, luminescence; TRPM1 promoter luciferase, 24 h; inhibition, % (concentration not given with the values); actives 0.28% (n = 37,000); AID 2240, 2010;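 active = most replicates at 85% or more, or half of them and the mean; inconclusive = half reach 85% but not the mean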;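 also: human melanocyte line stably carrying TRPM1 promoter luciferase reporter; 0% = vehicle wells and 100% = a positive control; the first replicate is given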
PD-1 reverse act – activators reversing PD-1 mediated T-cell inhibition, primary screen, luminescence, primary human CD4 T cells, PD-L1 beads. CellTiter-Glo 96 h. activation, % (concentration not given with the values). 29,000 tested, under 10 active. AID 2316, 2010;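 active = replicate mean of 50% or more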;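 also: 0% = median vehicle wells and 100% = positive control; 100 nL library stock added to about 50 µL; numbers are from one replicate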
YB-1 expression – inhibitors of YB-1 gene expression, primary screen, cell-based, fluorescence | U2OS, qRT-PCR YB-1 vs CDIP delta delta Cp, 16 h; stronger effect = higher value; zero = DMSO, each unit about twofold | delta delta Cp (YB-1 minus CDIP) (no concentration beside the values) | actives 0.37% (n = 30,000) | AID 434959, 2010;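 active = delta delta Cp rounded down to an integer at or above 3, about 3 SD of DMSO wells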;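 also: higher means less YB-1 transcript or more CDIP transcript relative to DMSO; stock transfer was 100 nL into about 100 µL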
* = called active by the depositor; ? = inconclusive; nt = no result given.

Start of the data: the first two entries, ahead of the listing:
SMILES	Shh pathway inh	MITF inhib	PD-1 reverse act	YB-1 expression
C[C@H]1CN([C@@H](C)CO)C(=O)c2cccc(NC(=O)c3ccc(-c4nccs4)cc3)c2O[C@@H]1CN(C)CC1CCCCC1	29	20	-1.4	0.18
C[C@@H]1CN([C@H](C)CO)C(=O)c2cc(NC(=O)c3ccncc3)ccc2O[C@H]1CN(C)Cc1ccc(C(=O)O)cc1	nt	-14	1.2	-0.5

This part in full, from the first entry:
SMILES	Shh pathway inh	MITF inhib	PD-1 reverse act	YB-1 expression
C[C@H]1CN([C@@H](C)CO)C(=O)c2cccc(NC(=O)c3ccc(-c4nccs4)cc3)c2O[C@@H]1CN(C)CC1CCCCC1	29	20	-1.4	0.18
C[C@@H]1CN([C@H](C)CO)C(=O)c2cc(NC(=O)c3ccncc3)ccc2O[C@H]1CN(C)Cc1ccc(C(=O)O)cc1	nt	-14	1.2	-0.5
Cc1ccc(C(=O)Nc2sc3c(c2C#N)CCCC3)cc1S(=O)(=O)N1CCOCC1	nt	50	-1.4	nt
C[C@@H]1CN([C@H](C)CO)C(=O)Cc2cc(NC(=O)Cc3cn(C)c4ccccc34)ccc2O[C@@H]1CN(C)Cc1ccc(Cl)c(Cl)c1	-16	20	-2.6	-0.045
COc1ccc(CN(C)C[C@H]2Oc3ccc(NC(=O)Nc4ccccc4)cc3C(=O)N([C@H](C)CO)C[C@H]2C)cc1	-9	-4	nt	0.41
COc1ccc(S(=O)(=O)Nc2ccc3c(c2)C(=O)N([C@H](C)CO)C[C@H](C)[C@H](CN(C)C(=O)NC2CCCCC2)O3)cc1	nt	3	-2.2	-0.16
Cc1nn(CC(=O)Nc2ccc(O)cc2)c(C)c1[N+](=O)[O-]	nt	-16	-0.3	nt
Cc1cc(C)cc(Sc2ccc3nnc(-c4ccccc4)n3n2)c1	67*	55	-5.2	0.036
C[C@H]1CN([C@@H](C)CO)C(=O)Cc2cc(NC(=O)CCN3CCOCC3)ccc2O[C@H]1CN(C)S(=O)(=O)c1ccccc1	-8	-10	1.3	-0.073
C[C@@H]1CN([C@H](C)CO)C(=O)c2cccc(NS(=O)(=O)c3ccccc3)c2O[C@H]1CN(C)S(=O)(=O)c1ccc(Cl)cc1	27	2	0.5	1.3
COc1ccc(NC(=O)N(C)C[C@H]2Oc3ccc(NC(=O)Cc4ccccc4)cc3C(=O)N([C@H](C)CO)C[C@H]2C)cc1	6	0	-0.8	-0.57
C[C@@H]1CN([C@@H](C)CO)C(=O)c2cc(NC(=O)Nc3ccccc3)ccc2O[C@@H]1CN(C)C(=O)Nc1cccc2ccccc12	17	-22	-5.0	-0.49
C[C@@H]1CN([C@@H](C)CO)C(=O)Cc2cc(NC(=O)Nc3ccc(C(F)(F)F)cc3)ccc2O[C@@H]1CN(C)S(=O)(=O)c1cn(C)cn1	?	2	-0.6	-0.37
CC(C)=CCn1cnc(=N)c2[nH]cnc21	-12	-14	0.0	0.31
C[C@H]1CN([C@@H](C)CO)C(=O)c2cccc(NS(=O)(=O)c3cn(C)cn3)c2O[C@H]1CN(C)S(=O)(=O)c1ccc(Cl)cc1	-36	-10	0.2	0.3
C[C@@H]1CN([C@@H](C)CO)C(=O)c2cccc(NS(C)(=O)=O)c2O[C@H]1CN(C)Cc1ccc(Cl)c(Cl)c1	-46	-9	2.6	-0.17
COc1ccc(C)cc1NC(=O)NCc1cc(C)n(C)n1	nt	-5	-5.0	nt
CC(C)NC(=O)Nc1ccc2c(c1)CC(=O)N([C@H](C)CO)C[C@@H](C)[C@H](CN(C)Cc1ccc(C(=O)O)cc1)O2	5	-13	-0.6	0.37
C[C@@H]1CN([C@@H](C)CO)C(=O)c2cc(NC(=O)Cn3cnnn3)ccc2O[C@@H]1CN(C)C(=O)Nc1cccc2ccccc12	nt	-4	1.4	-0.006
COc1ccc(C(=O)O[C@H]2CC(C)=CCC3(C)CC[C@@](O)(C(C)C)[C@H]23)cc1 (some centres undefined)	9	8	0.5	-0.62
C[C@H]1CN([C@@H](C)CO)C(=O)c2cccc(NS(=O)(=O)c3ccccc3)c2O[C@@H]1CN(C)Cc1ccc(C(=O)O)cc1	10	5	1.3	0.21
C[C@@H]1CN([C@H](C)CO)C(=O)Cc2cc(NC(=O)Nc3cccc4ccccc34)ccc2O[C@H]1CN(C)C	nt	-9	0.4	-1.1
C[C@@H]1CN([C@H](C)CO)C(=O)c2cccc(NC(=O)Nc3ccc(C(F)(F)F)cc3)c2O[C@H]1CN(C)Cc1ccncc1	10	-7	nt	-0.13
CCOC(=O)c1cccc2c1-c1ccccc1C2=O	-22	-10	0.5	0.25
CCn1c2ccccc2c2cc(NC(=O)CCN3C(=O)c4ccccc4C3=O)ccc21	nt	-19	1.2	nt
C[C@H]1CN([C@@H](C)CO)C(=O)c2cccc(NC(=O)c3nc4ccccc4s3)c2O[C@H]1CN(C)S(=O)(=O)c1ccccc1	2	7	-5.3	-0.17
O=C(CSc1nnc(-c2cccnc2)o1)c1ccc(Oc2ccccc2)cc1	nt	-12	0.5	nt
COc1ccc(NC(=O)Nc2ccc3c(c2)C(=O)N([C@@H](C)CO)C[C@@H](C)[C@H](CN(C)S(=O)(=O)c2ccc(OC)cc2)O3)cc1	4	-32	0.4	0.011
CC(C)NC(=O)Nc1ccc2c(c1)C(=O)N([C@H](C)CO)C[C@H](C)[C@H](CN(C)Cc1ccccc1)OCCCC[C@@H](C)O2	?	-10	nt	-0.28
C=CC(C)(CC/C=C(\C)C(=O)O)O[C@@H]1O[C@H](C)[C@@H](O)[C@H](O)[C@H]1O (some centres undefined)	14	nt	nt	0.87
C[C@H]1CN([C@@H](C)CO)C(=O)c2cc(NC(=O)Cn3cnnn3)ccc2O[C@@H]1CN(C)C(=O)NC1CCCCC1	nt	3	0.8	-0.17
COc1ccc(NC(=O)c2ccco2)cc1NC(=S)NC(=O)c1ccc(-c2cccc(Cl)c2)o1	nt	28	-7.8	nt
Cc1noc(C)c1NC(=O)Nc1cccc2c1O[C@H](CN(C)Cc1ccc(C(=O)O)cc1)[C@@H](C)CN([C@H](C)CO)C2=O	nt	3	nt	0.048
COC(=O)c1cc(NC(=O)COc2c(C)cc(C)cc2Cl)cc(C(=O)OC)c1	nt	6	-1.8	nt
C[C@H](CO)N1C[C@H](C)[C@H](CN(C)Cc2ccc(C(=O)Nc3ccccc3N)cc2)Oc2ccc(NC(=O)Cc3ccccc3)cc2CC1=O	nt	14	-4.4	-0.62
O=C(COc1ccccc1[N+](=O)[O-])Nc1cccc2ncccc12	nt	47	0.0	nt
O=C(Cc1coc2ccc3ccccc3c12)Nc1cccnc1	nt	-1	-1.4	nt
CC(C)NC(=O)N(C)C[C@@H]1OCCCC[C@@H](C)Oc2ccc(NS(=O)(=O)c3ccc(Cl)cc3)cc2C(=O)N([C@H](C)CO)C[C@@H]1C	-19	3	0.4	0.066
C[C@@H]1CN([C@H](C)CO)C(=O)c2cc(NC(=O)Nc3ccccc3)ccc2O[C@H]1CN(C)C(=O)Nc1ccc(F)cc1	1	6	0.0	-0.14
C[C@H](CO)N1C[C@H](C)[C@H](CN(C)C(=O)Nc2ccc(C(F)(F)F)cc2)Oc2ccc(NC(=O)C3CCCCC3)cc2C1=O	-20	35	-6.5	0.39

Record cards, as listed above:
C[C@H]1CN([C@@H](C)CO)C(=O)c2cccc(NS(=O)(=O)c3ccccc3)c2O[C@@H]1CN(C)Cc1ccc(C(=O)O)cc1 reads Shh pathway inh: 10; MITF inhib: 5; PD-1 reverse act: 1.3; YB-1 expression: 0.21
C[C@H](CO)N1C[C@H](C)[C@H](CN(C)Cc2ccc(C(=O)Nc3ccccc3N)cc2)Oc2ccc(NC(=O)Cc3ccccc3)cc2CC1=O reads Shh pathway inh: nt; MITF inhib: 14; PD-1 reverse act: -4.4; YB-1 expression: -0.62

Later entries:
SMILES	Shh pathway inh	MITF inhib	PD-1 reverse act	YB-1 expression
CCOC(=O)c1c(C2COc3ccccc3O2)csc1NC(=O)c1ccccc1 (centres undefined)	nt	-2	0.6	nt
CC(=O)NCCOc1ccc(C2CCCCC2)cc1	-11	-42	-0.3	-0.09
Cc1noc(C)c1NC(=O)N(C)C[C@H]1Oc2ccc(NC(=O)Nc3ccc(C(F)(F)F)cc3)cc2C(=O)N([C@@H](C)CO)C[C@H]1C	-23	-5	-1.1	0.27
COc1ccccc1CC(=O)Nc1ccc2c(c1)C(=O)NC2=O	nt	-21	0.4	nt
COc1ccc(CC(=O)Nc2ccc(C(=O)Nc3ccccc3C(=O)O)cc2)cc1OC	nt	-1	1.0	nt
C[C@H]1CN([C@@H](C)CO)C(=O)c2cccc(NC(=O)C3CCCCC3)c2O[C@H]1CN(C)S(=O)(=O)c1ccc(F)cc1	82*	-12	0.9	0.092
Cc1ccc(N2CC(C(=O)NCc3cccnc3)CC2=O)cc1 (centres undefined)	nt	10	1.5	nt
COc1ccc(CN(C)C[C@@H]2Oc3ccc(NC(=O)NC4CCCCC4)cc3C(=O)N([C@@H](C)CO)C[C@@H]2C)cc1	3	2	0.0	0.22
O=C(CSc1nnc(-c2ccccc2)n1-c1ccccc1)Nc1cccc(F)c1	nt	-19	-0.9	nt
COC(=O)Cc1c(C)nc2nc(NCc3cccs3)[nH]n2c1=O	nt	7	1.5	nt
C[C@@H]1CN([C@@H](C)CO)C(=O)c2cccc(NC(=O)C3CC3)c2O[C@H]1CN(C)Cc1ccncc1	-78	-8	0.7	0.3
C[C@@H]1CCCCO[C@@H](CN(C)Cc2ccccc2)[C@@H](C)CN([C@H](C)CO)C(=O)c2cc(NC(=O)Nc3ccccc3)ccc2O1	1	4	-1.6	-0.8
COc1ccc(-c2nnc(SCc3nc4ccccc4c(=O)[nH]3)n2C)cc1	nt	-3	1.3	nt
COc1ccc(NC(=O)c2ccc(CN3CCS(=O)(=O)CC3)cc2)cc1	nt	-1	0.6	-0.054
COc1ccc(CN(C)C[C@@H]2OCCCC[C@@H](C)Oc3ccc(NC(=O)Nc4cccc5ccccc45)cc3C(=O)N([C@H](C)CO)C[C@@H]2C)cc1	46	0	nt	0.37
Cc1noc(C)c1S(=O)(=O)Nc1ccc2c(c1)CC(=O)N([C@@H](C)CO)C[C@H](C)[C@H](CN(C)Cc1ccc(C(=O)O)cc1)O2	-4	-14	0.9	-0.13
C[C@@H]1CN([C@H](C)CO)C(=O)c2cccc(NC(=O)Nc3cccc4ccccc34)c2O[C@@H]1CN(C)Cc1ccc(C(=O)O)cc1	-8	-1	1.6	-0.38
O=C1N/C(=N/S(=O)(=O)c2ccccc2)S/C1=C/c1ccco1	-15	10	0.7	-0.34
C[C@H](CO)N1C[C@H](C)[C@@H](CN(C)CC2CCCCC2)Oc2c(NC(=O)Nc3ccc(F)cc3)cccc2C1=O	-9	44	-2.5	-0.3
CC(=O)c1ccc(NC(=O)CSc2nnc3c4ccccc4n(C)c3n2)cc1	nt	-30	-4.8	nt
CC(C)NC(=O)Nc1cccc2c1O[C@@H](CN(C)S(=O)(=O)c1cn(C)cn1)[C@@H](C)CN([C@@H](C)CO)C2=O	-27	0	1.6	0.27
O=C(COc1cccc2ccccc12)Nc1cccc(C(=O)O)c1	nt	2	1.5	nt
CCOC(=O)c1sc(SC)c2c1CCc1cnc(SC)nc1-2	17	3	0.3	0.33
C[C@H]1CN([C@@H](C)CO)C(=O)c2cccc(NC(=O)Nc3cccc4ccccc34)c2O[C@H]1CN(C)C(=O)Nc1ccc2c(c1)OCO2	29	9	-4.6	-0.31
COc1ccc(-c2cc(C(F)(F)F)nc(SCC(N)=O)n2)cc1OC	nt	-6	-1.8	nt
COc1ccc(S(=O)(=O)N(C)C[C@H]2Oc3c(NS(=O)(=O)c4ccc(Cl)cc4)cccc3C(=O)N([C@@H](C)CO)C[C@@H]2C)cc1	-6	-12	1.6	0.37
COc1ccc(S(=O)(=O)N(C)C[C@H]2Oc3ccc(NC(=O)Cc4cn(C)c5ccccc45)cc3C(=O)N([C@@H](C)CO)C[C@H]2C)cc1	nt	16	-3.2	0.22
C[C@@H]1CN([C@H](C)CO)C(=O)c2cc(N(C)C)ccc2O[C@@H]1CN(C)Cc1ccncc1	-21	6	nt	0.014
C[C@@H]1CN([C@@H](C)CO)C(=O)c2cc(NC(=O)CCCN(C)C)ccc2O[C@H]1CN(C)Cc1ccc(-c2ccccc2)cc1	nt	-8	1.1	-0.0093
COc1ccc(NC(=O)N(C)C[C@H]2Oc3ccc(NS(=O)(=O)c4ccc(OC)cc4)cc3C(=O)N([C@H](C)CO)C[C@H]2C)cc1	-65	7	nt	0.13
C[C@@H]1CN([C@H](C)CO)C(=O)Cc2cc(NC(=O)CCC(F)(F)F)ccc2O[C@@H]1CN(C)Cc1ccc(-c2ccccc2)cc1	-36	8	-2.0	0.26
COc1cc(SC)ccc1C(=O)NC1CC1	36	-1	3.7	-0.093
C[C@@H]1CN([C@@H](C)CO)C(=O)c2cccc(NC(=O)C3CCOCC3)c2O[C@H]1CN(C)Cc1ccccc1	8	-4	2.9	-0.23
COC(=O)c1c(NC(=O)C2CC(=O)NN2Cc2ccccc2)sc2c1CCC(C)C2 (centres undefined)	nt	67	-5.6	nt

Not all compounds are listed (hit frequency here may not be typical).
